Screens: PubChem BioAssay, several laboratories
Bead autofluor = compound fluorescence in toxin protease inhibitor counterscreen; AID 624483; fluorescence intensity (no concentration beside the values); compound autofluorescence counterscreen, microsphere flow cytometry; active compounds read high; 3.1% of 360,000 active;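 active = at least 3 SD above the mean of all compounds, about 16000 in these data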;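 note: 100 nL of 1 mM stock went into each well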
ugtP null kill = growth inhibition of S. aureus ugtP deletion strain; S. aureus RN4220 ugtP deletion, OD600 growth, 16 h; some inactives read as strong as hits; growth inhibition, % (concentration not given with the values); 0.54% of 330,000 active; AID 1259309;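 active = z-score under -3 and OD600 up to 0.15 on both plates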;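 note: plate controls were untreated wells for no effect and antibiotic for full effect; wells of about 80 µL received 100 nL stock; the first replicate is given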
Mtb hypoxia rep = reduces hypoxia-regulated biosensor signal in M. tuberculosis | 0.1% of 300,000 active | AID 1159583 | M. tuberculosis hypoxia-regulated fluorescent reporter, fluorescence | fluorescence inhibition, % (test concentration not listed);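 active = 35 to 45% if threefold the growth effect, above 45% if 1.5-fold the growth effect; inactive = the rest, general growth blockers included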;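 note: wells of about 50 µL received 100 nL stock; 0% = vehicle wells and 100% = reference inhibitor wells; whole bacteria with a GFP reporter of the hypoxia response; strong numbers were not always called active; many hits fall short of the cut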
Sa RN4220 lethal = kills Staphylococcus aureus RN4220; S. aureus RN4220 growth, OD600, 16 h; inhibition, % (no concentration beside the values); 0.33% of 330,000 active; AID 1259311;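 active = z-score of -3 or lower and OD600 up to 0.18 on both plates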;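 note: plate controls were untreated cells for no effect and reference antibiotic for full effect; stock transfer was 100 nL into about 80 µL; one replicate is shown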
PrP UTR inh = inhibition of PrP 5' UTR reporter expression | cell-based PrP 5' UTR mRNA reporter, plate reader | inhibition, % (test concentration not listed) | 0.35% of 340,000 active | AID 488862;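 active = every replicate at 50% or more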;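 note: 0 = median of the neutral control wells; tested in H4 reporter cells; numbers are from one replicate; inactives centre near -14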
BJeLR viability = kills HRASV12-expressing BJeLR cells. BJeLR (HRASV12) viability, CellTiter-Glo ATP luminescence, 48 h; reference of the scale not given here. inhibition, % (no concentration beside the values). 0.17% of 300,000 active. AID 1554;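 active = replicate mean above 50%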;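 note: 50 nL library stock added to about 25 µL; numbers are from one replicate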
Mtb hypoxia rep growth = also measured in Mtb hypoxia rep; calls as there; growth inhibition, %; measured here: M. tuberculosis growth (absorbance);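 0% = vehicle and 100% = reference antibiotic; read after six days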
* = called active by the depositor; . = not tested or not shown.

SMILES	Bead autofluor	ugtP null kill	Mtb hypoxia rep	Mtb hypoxia rep growth	Sa RN4220 lethal	PrP UTR inh	BJeLR viability
CCCCSc1nnc(CCCCCNC(=O)OC(C)(C)C)o1	16992*	10	7	7	5.5	-25	-2
C=CCn1cc(C(=O)NCc2ccc3c(c2)OCO3)c(=O)c2cc(S(=O)(=O)N(CC)CC)ccc21	11474	-3	10	4	3.8	-32	2
Cc1ccc(N(CC(=O)Nc2ccc(-c3nc4ccc(C)cc4s3)cc2)S(C)(=O)=O)cc1	4852	-14	.	.	-8.1	-116	-1
COCCNC(=O)C(c1cccc(OC)c1)N(C(=O)Cn1nnc2ccccc21)c1cccnc1 (stereo unspecified)	4658	6	.	.	2.1	-4	10
COc1ccccc1-c1nnc2sc(COc3ccc(F)cc3)nn12	4391	-13	3	9	2.8	-4	-13
CCn1c(C(C)NC(=O)Cc2ccccc2)nc2ccccc21 (stereo unspecified)	3427	19	2	1	-1.9	5	-15
CCS(=O)(=O)c1ccc2oc(Nc3ccccc3Br)nc2c1	4838	-2	-8	4	4.1	-53	7
Cn1ncc(Cl)c(Oc2ccc(Cl)cc2)c1=O	2341	4	2	2	1.1	-27	-7
[O-][n+]1cccc2c(Br)cc(Br)c(O)c21	3418	-10	-1	13	20	-19	4
Cc1nc2ccc(NC(=O)c3nn(C(C)C)c(=O)c4ccccc34)cc2s1	2247	20	8	5	15	4	5
COc1cccc(C2NC(=O)NC(C)=C2C(=O)Nc2cccc(C)c2C)c1 (stereo unspecified)	3360	22	7	1	4.0	-12	-1
CC(C)Oc1ccc(C(=O)NCC(=O)O)cc1	4728	6	4	8	1.8	-16	-9
Cc1ccc(C(=O)C2C(c3cccs3)NC(=O)NC2(O)C(F)(F)F)cc1 (stereo unspecified)	4082	5	18	8	3.3	-11	5
COCC1OS(=O)(=O)NC(CC(=O)SC(C)(C)C)C1C (stereo unspecified)	3242	-2	4	5	2.7	-9	-8
Cc1cc(C(=S)N2CCOCC2)c(C)n1-c1ccc(Cl)cc1	2652	-1	2	11	4.4	-23	-5
C=CCc1c(C)nc(SC)nc1Nc1ccccc1	3194	9	7	6	1.6	-25	-8
CC1CC(C)CN(C(=O)COC(=O)c2ccc3c(c2)OCO3)C1 (stereo unspecified)	3109	7	23	-1	3.3	-5	.
CCN(CC)CCNC(=O)CNC(=O)c1nn(-c2ccc(OC)cc2OC)c(=O)c2ccccc12	3021	4	16	-3	-0.1	-6	-3
N#CC(C#N)=C1C=C2C=C(N3CCCCCC3)CCC2CC1 (stereo unspecified)	97979*	.	.	.	.	-16	1
C#CCN(CC=C)C(=O)c1cccc(OC2CCN(S(C)(=O)=O)CC2)c1	3431	8	-2	-7	0.6	-6	-7
CC(=NNC(=O)C(O)(c1ccccc1)c1ccccc1)c1ccc(NC(=O)CCCC(=O)O)cc1	.	2	2	-13	0.6	.	.
O=C(Cn1nnc2ccccc2c1=O)NC1CCCCC1	3753	-7	14	1	2.2	-24	-11
Cc1cc(C)n(-c2nc3ccccc3nc2N2CCN(S(=O)(=O)c3ccc(F)c(C)c3)CC2)n1	7375	-5	15	7	14	-26	6
CCOC(=O)C1=NN(c2ccc(OC)cc2)C(c2ccccc2)CC1=O (stereo unspecified)	3615	7	4	7	0.5	-25	3
O=c1c2ccccc2nc2n1C(CSc1ccc(Cl)cc1)CN2 (stereo unspecified)	2166	-5	.	.	0.5	0	3

16 neighbouring records out of the list so far:
SMILES	Bead autofluor	ugtP null kill	Mtb hypoxia rep	Mtb hypoxia rep growth	Sa RN4220 lethal	PrP UTR inh	BJeLR viability
Cc1nc2ccc(NC(=O)c3nn(C(C)C)c(=O)c4ccccc34)cc2s1	2247	20	8	5	15	4	5
COc1cccc(C2NC(=O)NC(C)=C2C(=O)Nc2cccc(C)c2C)c1 (stereo unspecified)	3360	22	7	1	4.0	-12	-1
CC(C)Oc1ccc(C(=O)NCC(=O)O)cc1	4728	6	4	8	1.8	-16	-9
Cc1ccc(C(=O)C2C(c3cccs3)NC(=O)NC2(O)C(F)(F)F)cc1 (stereo unspecified)	4082	5	18	8	3.3	-11	5
COCC1OS(=O)(=O)NC(CC(=O)SC(C)(C)C)C1C (stereo unspecified)	3242	-2	4	5	2.7	-9	-8
Cc1cc(C(=S)N2CCOCC2)c(C)n1-c1ccc(Cl)cc1	2652	-1	2	11	4.4	-23	-5
C=CCc1c(C)nc(SC)nc1Nc1ccccc1	3194	9	7	6	1.6	-25	-8
CC1CC(C)CN(C(=O)COC(=O)c2ccc3c(c2)OCO3)C1 (stereo unspecified)	3109	7	23	-1	3.3	-5	.
CCN(CC)CCNC(=O)CNC(=O)c1nn(-c2ccc(OC)cc2OC)c(=O)c2ccccc12	3021	4	16	-3	-0.1	-6	-3
N#CC(C#N)=C1C=C2C=C(N3CCCCCC3)CCC2CC1 (stereo unspecified)	97979*	.	.	.	.	-16	1
C#CCN(CC=C)C(=O)c1cccc(OC2CCN(S(C)(=O)=O)CC2)c1	3431	8	-2	-7	0.6	-6	-7
CC(=NNC(=O)C(O)(c1ccccc1)c1ccccc1)c1ccc(NC(=O)CCCC(=O)O)cc1	.	2	2	-13	0.6	.	.
O=C(Cn1nnc2ccccc2c1=O)NC1CCCCC1	3753	-7	14	1	2.2	-24	-11
Cc1cc(C)n(-c2nc3ccccc3nc2N2CCN(S(=O)(=O)c3ccc(F)c(C)c3)CC2)n1	7375	-5	15	7	14	-26	6
CCOC(=O)C1=NN(c2ccc(OC)cc2)C(c2ccccc2)CC1=O (stereo unspecified)	3615	7	4	7	0.5	-25	3
O=c1c2ccccc2nc2n1C(CSc1ccc(Cl)cc1)CN2 (stereo unspecified)	2166	-5	.	.	0.5	0	3

The results go on:
SMILES	Bead autofluor	ugtP null kill	Mtb hypoxia rep	Mtb hypoxia rep growth	Sa RN4220 lethal	PrP UTR inh	BJeLR viability
COc1ccc(O)c(-c2cc(-c3cccs3)[nH]n2)c1	3934	-25	.	.	11	-38	3
O=C(c1ccc(COc2ccccc2[N+](=O)[O-])o1)N1CCCCC1	19870*	5	7	12	3.7	-32	-20
Oc1ccc(C2=CCNCC2)cc1O	3778	1	7	-2	6.9	-9	-5
O=C(NC1CCCCC1)N1CCNCC1	4199	10	9	4	4.4	-11	4
CCC(=O)Nc1cccc(NC(=O)c2cc3ccccc3o2)c1	5403	-2	.	.	15	-34	-4
Cc1cc(C)c(OCC(=O)N2CCN(c3ncc(C(F)(F)F)cc3Cl)CC2)c(C)c1	5509	69	8	11	-9.0	-5	-5
Cc1cc(=O)oc2cc(OCC(=O)N3CCOCC3)c(Cl)cc12	3524	-1	12	-2	4.8	-13	.
c1ccc(C2C3=C(Nc4ncnn42)c2ccccc2CCC3)cc1 (stereo unspecified)	6364	16	6	-2	6.4	5	-2
Nc1nc(SCC(=O)N2CCN(S(=O)(=O)c3ccc(Cl)cc3)CC2)n[nH]1	4411	2	-3	5	-1.7	-7	0
COC(CNc1ncnc2c1cnn2C)OC	4328	3	4	-5	2.2	-19	-1
CC(CCc1ccccc1)NC(=O)COC(=O)c1cccc2ccccc12 (stereo unspecified)	2468	-3	5	-2	-3.0	-12	-3
COc1ccc2nc(-c3ccco3)c(-c3ccco3)nc2c1	4874	-2	13	8	11	-39	-13
C/C(=N\N1CCN(c2ccccc2)CC1)c1ccc(O)cc1	3790	.	.	.	.	-24	19
CCN(CC)c1ccc(/C=N/OCC(=O)N2CCCc3ccccc32)cc1	6945	.	.	.	.	-12	-6
CC1CCC(NC(=O)c2cc3c(s2)CCCC3)CC1 (stereo unspecified)	5577	-1	.	.	0.0	-57	1
CCCCCCNC(=O)C(C#N)c1nc2ccccc2nc1N1CCCC1 (stereo unspecified)	2951	-9	5	8	-9.9	-11	1
COc1ccccc1C=NOCC(=O)NCc1ccc2c(c1)OCO2	.	1	-2	7	1.5	.	.
COc1cc(CNc2ccc3[nH]c(=O)[nH]c3c2)ccc1OCc1ccc(C)cc1	4052	-5	9	1	0.1	-33	1
O=[N+]([O-])c1ccc(CSc2nnc(SCc3ccccc3)s2)cc1	2619	5	15	2	1.3	-14	3
O=C(CN1C(=O)S/C(=C\C=C\c2ccccc2)C1=O)N1CCCCC1	5570	14	8	10	3.6	-11	-2
COC(=O)c1cc(NS(=O)(=O)c2ccc(N3CCOCC3)c(N)c2)cc(C(=O)OC)c1	2019	16	13	2	4.0	-7	20
CCn1c2ccccc2c2cc(CN3CCN(S(=O)(=O)Cc4ccccc4)CC3)ccc21	1948	4	11	0	7.5	-2	5
O=C(COc1ccc(Br)cc1)NN=C1SCC(=O)N1Cc1ccco1	.	-3	-3	3	5.8	.	.
COc1ccc(CC(=O)Nc2ccc3c(C)cc(=O)oc3c2)cc1OC	2538	2	6	9	1.7	-100	-22
COc1ccccc1NS(=O)(=O)c1cccc(C(=O)N/N=C/c2ccc3c(c2)OCCO3)c1	2403	.	.	.	.	1	-3
(further entries)
SMILES	Bead autofluor	ugtP null kill	Mtb hypoxia rep	Mtb hypoxia rep growth	Sa RN4220 lethal	PrP UTR inh	BJeLR viability
CC(Oc1ccc(/C=N/NC(=O)Cc2cccc3ccccc23)cc1)C(=O)O (stereo unspecified)	4207	.	.	.	.	-27	4
CC(NC(=O)c1ccco1)C(=O)N(C)Cc1ccc(C(F)(F)F)cc1 (stereo unspecified)	4764	-1	-3	1	1.3	-21	4
Cc1ccc(-c2cc(-c3ccc(F)cc3)c(C#N)c(N)n2)o1	2981	-9	-15	-5	7.3	-8	2
N#Cc1cccc(C(=O)OCc2cccc(S(=O)(=O)N3CCOCC3)c2)c1	6971	3	-4	-3	3.5	-8	.
O=C(c1cccc(Oc2ccc([N+](=O)[O-])cc2Cl)c1)N1CCCCC1	2599	4	9	17	5.4	-15	-3
COc1nc(C)cc(C)c1S(=O)(=O)c1ccccc1	2876	8	9	0	3.5	0	2
CC(C)OCCCNc1ncnc2c1[nH]c1ccccc12	11349	-6	9	11	3.7	-48	29
COc1ccc(N2CCN(C(=O)CNC(=O)c3ccco3)CC2)cc1	5267	10	1	-2	3.7	-20	8
O=C(OCc1cccc([N+](=O)[O-])c1)c1ccncc1	2472	7	11	5	6.4	-9	-9
O=C(NN=Cc1ccc(OC(F)F)cc1)c1cccc(S(=O)(=O)N2CCOCC2)c1	.	9	-5	9	8.0	.	.

Not a hit list. About 4.1% of those tested had a hit in this group.
